Compound activity deposited in PubChem BioAssay by National Center for Advancing Translational Sciences (NCATS).
TRPML1 inh = blocks the human TRPML1 channel | Q9GZU1 | TRPML1-inducible cells, Ca2+ dye fluorescence, FDSS; active compounds read low; inhibition of EC80 agonist-evoked calcium signal | activity change, negative = inhibition, % (concentration not given with the values) | hit rate 0.02% among 390,000 | AID 624415; in the data active means activity change below about -50%; inconclusive means about -30% to -50%; inactive means above about -30%;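 also: stimulus is agonist 54-4 at its EC80 concentration; % is scaled to controls: 0 for no effect and ±100 for the full control effect; the text of the record puts the active cut at -80%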
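Calcium fluorescence in TRPML1-DL cells induced overnight with Tet: a 110 s read after compound pin addition, then a 110 s antagonist read after challenge with 54-4 at 4 uM final (EC80).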
PINK1 modulator = modulators of PINK1 expression | PINK1 immunofluorescence, high-content cytometry, 24 h | Potency, µM (series often up to 76.6 µM), without a hit: top-dose activation (PINK1 increase), actives largely listed as activators | AID 624263 | hit rate 0.2% among 410,000; active = well fitted activation curve with a large enough effect; inconclusive = small, poorly fitted or top-dose-only effect; inactive = flat fitted curve, though single readings scatter; cell line not stated here;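 also: potency is read from the fitted curve at half-maximal effect; % of control where 0% means no effect; nearly all actives have a fitted effect of over 65% in size; a mitochondrial uncoupler was the plate control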
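A stable cell line was treated with compounds at 5 concentrations for 24 hours, with CCCP as control. PINK1 levels and mitochondrial localization were measured by immunofluorescence with mitochondrial, cell and nuclear markers after fixation, read by laser-scanning cytometry.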
CtBP-E1A inh = inhibitors of CtBP/E1A interaction. AlphaScreen GST-E1A/His-CtBP binding, 1536-well; active compounds read low; control for the full effect not named in the record. activity change, % (no concentration beside the values). hit rate 0.49% among 340,000. AID 651724; in the data active means activity change below about -65%; inconclusive means about -30% to -65%; inactive means above about -30%; also: % is scaled to controls: 0 for no effect and ±100 for the full control effect
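Steps: dispense buffer (Tris pH 8.0, NaCl 300 mM, TCEP 1 mM, BSA, Tween 20); add 5X protein mix (GST-E1A, His-CtBP, 125 nM each); pin 23 nL compound; 2 h at 37 °C, dark; add 5X beads (50 ug/mL); 1 h; read.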
TRPML1 ag = activates the human TRPML1 channel | Q9GZU1 | activation, % (no concentration beside the values) | TRPML1-expressing cells, Ca2+ dye fluorescence, FDSS; host cell line not named in the record; reference of the full effect not given here | AID 624414 | hit rate 0.12% among 410,000; in the data active = activation above about 50%; inconclusive = about 30% to 50%; inactive = below about 30%; also: 0% is about no effect; the text of the record puts the active cut at 80%
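TRPML1-DL cells, Tet-induced overnight (~16 h, 37 degrees C), loaded 45-90 min at room temperature with Ca8 no-wash calcium dye plus quencher. FDSS fluorescence: 10 s baseline, compound pin-transfer, 110 s agonist read, then EC80 54-4 (4uM final) and 110 s antagonist read.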
Six1-Eya2 blk = inhibitors of human Six1/Eya2 interaction. hit rate 0.56% among 360,000. activity change, % (test concentration not listed). AID 651725. Q15475+O00167. AlphaScreen GST-Six1/His-Eya2 binding, biochemical; active compounds read low; control for the full effect not named in the record; in the data active = activity change below about -65%; inconclusive = about -30% to -65%; inactive = above about -30%; also: % is scaled to controls: 0 for no effect and ±100 for the full control effect
Target sequence (O00167 whole entry, looked up): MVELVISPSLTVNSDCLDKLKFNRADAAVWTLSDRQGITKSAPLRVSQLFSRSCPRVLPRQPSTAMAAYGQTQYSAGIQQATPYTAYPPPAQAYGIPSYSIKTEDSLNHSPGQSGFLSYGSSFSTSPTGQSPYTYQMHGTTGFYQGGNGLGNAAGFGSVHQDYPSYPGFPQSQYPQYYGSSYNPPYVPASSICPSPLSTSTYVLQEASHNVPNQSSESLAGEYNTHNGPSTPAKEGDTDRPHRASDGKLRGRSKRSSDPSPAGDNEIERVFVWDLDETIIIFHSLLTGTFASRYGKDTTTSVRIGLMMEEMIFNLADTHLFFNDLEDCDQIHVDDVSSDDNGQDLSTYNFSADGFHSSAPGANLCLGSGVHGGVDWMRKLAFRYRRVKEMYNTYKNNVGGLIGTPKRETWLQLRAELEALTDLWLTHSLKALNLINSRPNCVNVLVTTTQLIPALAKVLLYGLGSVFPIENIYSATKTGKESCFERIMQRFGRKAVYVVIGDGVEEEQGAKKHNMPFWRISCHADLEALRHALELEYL
Target sequence (Q15475 whole entry, looked up): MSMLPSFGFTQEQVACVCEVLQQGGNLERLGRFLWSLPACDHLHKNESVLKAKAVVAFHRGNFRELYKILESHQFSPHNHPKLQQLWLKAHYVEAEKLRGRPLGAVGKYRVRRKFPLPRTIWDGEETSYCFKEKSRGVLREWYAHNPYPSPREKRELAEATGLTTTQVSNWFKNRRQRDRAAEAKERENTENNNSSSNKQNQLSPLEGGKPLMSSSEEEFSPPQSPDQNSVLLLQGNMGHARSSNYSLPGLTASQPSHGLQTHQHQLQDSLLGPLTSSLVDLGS
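Compounds are tested against tagged Six1 and Eya2 proteins bridged by glutathione donor and nickel acceptor beads; after a one-hour incubation at 37 °C without light, AlphaScreen emission is recorded.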
D2 agonist = agonists of human D2 dopamine receptor (beta-arrestin). P14416. DiscoveRx PathHunter D2 beta-arrestin, luminescence, 90 min; 100% = 57 uM dopamine signal. activation, % (no concentration beside the values). hit rate 0.084% among 360,000. AID 624465; in the data active = activation above about 40%; inconclusive = about 15% to 40%; inactive = below about 15%; also: compound concentration not given in the record; the text of the record calls up to 30% inactive
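Agonist mode: compounds alone added to overnight-plated D2 PathHunter cells for 90 min at 37 C, with 57 uM final dopamine (EC100) defining full response. Beta-arrestin recruitment detected by chemiluminescent reagent, read after 1 h at ambient temperature.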
Starred values were filed as active, the others as inactive; ? = inconclusive; / = no result given; & = joins results of further samples; [ ] = another dose, or the depositor's remark.

smiles	TRPML1 ag	PINK1 modulator	Six1-Eya2 blk	CtBP-E1A inh	D2 agonist	TRPML1 inh
CC(C)CN(CCNC(=O)c1cn(C)c2ccc(S(=O)(=O)N3CCOCC3)cc2c1=O)CC(C)C	-0.4	0.1%	/	/	/	6
COC(=O)c1ccc(NC(=O)C(=O)NCC(c2cccnc2)N2CCc3ccccc32)cc1 (configuration not stated)	0.7	2.7%	/	/	/	3
CCn1c(COc2ccc(C)cc2)nnc1SCc1ccc(C#N)cc1	1.2	6.8%[38.3 µM]	2	5	1.1	-8
Cc1ccc2oc(C(=O)N(C)Cc3ccc(C)o3)c(C)c2c1	1.7	8.0%	-3	2	-0.8	7
O=C(CCN1C(=O)c2ccccc2C1=O)C1=NN[C@@H]2C(=O)N(c3ccc(F)cc3)C(=O)[C@H]12	1.2	0.3%	0	3	-1.7	-6
CCOC(=O)N1CCC(NC(=O)CSc2cc(=O)n(CC)c3ccccc23)CC1	1.4	?	-16	-15	0.2	-10
Cc1cccc(N2C(=O)CC(N3CCOCC3)C2=O)c1 (configuration not stated)	-0.8	2.4%	5	2	-1.6	-18
O=C(O)c1cccc(N/N=C(\N=Nc2ccccc2)c2ccccc2)c1	1.8	-1.0%	?	?	-6.6	42
COc1ccc(CN2C(=O)c3ccccc3C2c2nnnn2C(C)C)cc1 (configuration not stated)	-0.7	0.8%	10	3	/	/
CN(C)c1nc(Oc2ccc(C(=O)OCC(=O)Nc3ccccc3)cc2)nc(N(C)C)n1	1.7	-0.9%	-3	-3	0.7	-4
Cc1nc(-c2ccccc2)sc1C(=O)NS(=O)(=O)c1ccc(CN2CCN(c3ccccc3)CC2)cc1	-0.5	-0.9%	?	-25	/	/
CN1CCN(S(=O)(=O)c2ccc(NN)nc2)CC1	1.2	8.1%	-4	0	7.3	-8
COc1ccc(OC)c(NC(=O)c2ccc(Cl)cc2)c1	1.1	-0.4%	0	-3	0.1	41
Cc1onc(-c2ccccc2)c1CNS(=O)(=O)c1ccc(F)cc1F	1.3	-0.5%	5	/	3.2	?
COc1cc2c(cc1OC)C(C(=O)NCc1ccco1)C(c1cccs1)N(C)C2=O (configuration not stated)	-0.3	-1.5%[38.3 µM]	-4	-3	-3.2	-1
COc1ccc(N(CC(=O)N2CCN(C)CC2)S(=O)(=O)c2ccccc2)cc1OC	-0.3	0.8%	-1	3	-2.9	6
Cn1c(=O)c(=O)n(C)c2cc(S(=O)(=O)N3CCN(c4ccccc4)CC3)ccc21	-0.3	0.9%	/	/	/	-2
O=C(CSc1ncn[nH]1)Nc1cccc(S(=O)(=O)N2CCCCCC2)c1	-0.1	-0.6%	?	?	-0.1	8
CCC1C(C#N)=C(SC)NC2=C1C(=O)CC(C)(C)C2 (configuration not stated)	1.4	0.7%	5	7	-0.1	-7
Oc1ccc(C=NNC(=S)Nc2ccc(F)cc2)c(O)c1	0.7	?	-80*	-93*	1.7	2
COc1cc(C2NC(=O)NC(O)(C(F)(F)F)C2C(=O)c2ccc(Cl)cc2)ccc1O (configuration not stated)	-0.8	0.1%	3	12	1.6	-5
O=S1(=O)[C@H]2C[C@H](CO)O[C@@]2(CO)CN1Cc1ccc(-c2ccc(F)cc2)cc1	-0.2	1.4%	4	3	-0.2	22
O=C1c2cccc3cc([N+](=O)[O-])cc(c23)C(=O)N1CCN1CCCC1	3.1	-2.0%	?	?	?	-7
COc1ccc(NC(=O)c2ccccc2NC(=O)COc2ccccc2)cc1	-0.5	13%	-3	6	-6.0	-14
CN1CCN(S(=O)(=O)c2ccc(N)cc2)CC1	0.1	2.5%	3	5	-3.3	3
CCC(=O)n1nc(-c2cccnc2)nc1NCc1cccs1	-1.5	-0.2%	4	5	-3.8	-4
COc1cc(CN2CCCCC2)ccc1OCc1ccccc1	1.1	0.5%	-2	5	-1.2	-4
CCc1ccc(/C=C2\Oc3c(ccc(O)c3CN3CCN(CCO)CC3)C2=O)cc1	/	2.8%	8	16	-0.6	/
Cc1ccc(S(=O)(=O)N2CCC(C(=O)NN3CCCCC3)CC2)cc1	0.0	0.0%	2	-9	-3.5	-10
O=C1C=C(c2cc(C(F)(F)F)cc(C(F)(F)F)c2)C[C@@H](c2ccc3c(c2)OCO3)C1	1.6	1.8%	-3	/	-6.6	-8
CCc1nc(NCc2ccc3c(c2)OCO3)c2oc3ccccc3c2n1	8.8	-3.0%	-3	-4	3.1	34
CCCCCC(=O)N1CCN(CCN=CC2=C(O)CC(c3ccc(OC)cc3)CC2=O)CC1 (configuration not stated)	1.1&-0.8	0.1%&-0.4%	29&2	0&0	-3.0&-2.6	34&5
CCCCCCCC(=O)N1c2ccccc2NC(=O)C1CC(=O)Nc1ccc(C(=O)O)cc1 (configuration not stated)	-0.3	2.0%	-2	-1	-1.3	-12
COc1cccc(-c2nc3n(n2)C(c2cccs2)C(C(=O)Nc2cccnc2)=C(C)N3)c1 (configuration not stated)	0.3	1.3%	-2	7	2.0	13
N#Cc1c(N2C(=O)Nc3ccccc3N2O)sc2c1CCCC2	-0.9	1.0%	-4	-1	-13	5
Cc1ccc(-c2nnn(CC(=O)N(Cc3cccs3)C(C(=O)NC(C)(C)C)c3ccco3)n2)o1 (configuration not stated)	1.5	1.0%	0	-7	-0.5	26
CCN1CCN(C(c2cccs2)C(C)NS(=O)(=O)c2ccccc2)CC1 (configuration not stated)	0.2	-0.8%	6	-3	-5.7	14
Cc1ccc(SCC(=O)Nc2ccc(N3CCN(C)CC3)c(F)c2)c(C)c1	1.9	0.2%	-15	/	0.4	14
C=CCNC(=O)c1onc(CSc2ccncc2)c1C(=O)NCC=C	0.2	0.7%	6	-3	-2.4	-5
N#Cc1c(SCC(N)=O)nsc1SCc1ccccc1Cl	2.7	-0.6%	2	-10	0.8	-7
CN(C)C(C)(C)C#CCC(c1ccccc1)c1ccccc1	0.3	15%	-16	-3	-2.2	42
Cn1c(=O)c2c(nc(NCc3ccco3)n2CC(O)COc2ccccc2)n(C)c1=O (configuration not stated)	-0.6	1.3%	-1	-14	-2.7	3
CC(=O)c1cccc(-n2nnnc2SCC(=O)NNC(=O)C2CCCCC2)c1	0.8	-0.7%	7	3	-1.5	11
O=c1[nH]c(CN(CCc2ccccc2)S(=O)(=O)c2ccc(Cl)cc2)nc2ccccc12	3.5	?	8	-2	-0.5	66
CSc1cccc(NC(=O)C2CC(=O)N(c3ccc4c(c3)OCCO4)C2)c1 (configuration not stated)	-0.5	0.2%	-4	-12	-2.5	-3
COc1ccc(Br)cc1C(=O)Nc1cccc(-c2nnc(-c3ccco3)o2)c1	0.8	/	-30	-10	-2.0	8
CCOC(=O)Cc1nnc(NC(=O)CSc2ncc(-c3ccccc3)nn2)s1	-0.4	-0.3%	-2	2	-2.7	-23
CCOC(=O)c1cc(C)nn1-c1nc(Cl)cc(OC)n1	0.0	-0.1%	-1	1	-0.2	5
CCN(CC)C(=O)c1[nH]cnc1C(=O)NCc1ccccc1	0.0	0.0%	7	1	-1.8	-11
O=C(CSc1nnc2[nH]c(=O)cc(-c3ccccc3)n12)Nc1ccc(OC(F)(F)F)cc1	1.1	-5.1%	/	/	/	5
O=C(c1cc(Cl)ccc1Cl)N1CCN(Cc2ccccc2)CC1	/	2.6%	1	/	4.6	/
CC(OC(=O)c1cccnc1Cl)C(=O)Nc1ccc(S(N)(=O)=O)cc1 (configuration not stated)	-0.8	1.9%	0	-8	4.6	-3
Cc1nc(NC(=O)CCC(=O)O)sc1C(=O)N(C)C	-0.4	-0.7%	6	8	-2.3	-6
O=C1CCCC/C1=C/Nc1ccc(C(=O)O)cc1	0.0	6.5%[38.3 µM]	-3	4	-3.4	-23
O=c1oc(-c2ccccc2)nc2ccsc12	1.8	-0.5%	-1	1	-2.4	0
CN1CCN(C(=O)c2ccc(F)c(F)c2)CC1	-0.1	1.7%	3	/	-3.3	-6
O=C(Nc1nnc(C2CC2)s1)C1CCCCN1S(=O)(=O)c1ccccc1 (configuration not stated)	-0.1	1.0%	6	1	-0.1	-3
O=C(O)CCSc1nnc(CNc2ccc(Cl)cc2)n1Cc1ccccc1	-0.5	-1.9%	9	12	-4.6	23
O=C(C[C@H]1C(=O)N(C2CCCCC2)C[C@@H]1Cc1ccccc1)Nc1ccccc1	0.2&0.1	2.1%	-2	3	-0.5	-14
CC(=O)NCCC(=O)Nc1nc(-c2ccc3c(c2)OCCO3)cs1	-0.6	0.2%	-10	0	-0.8	3

Overlap with the part before: 2 compounds, then new ones.
smiles	TRPML1 ag	PINK1 modulator	Six1-Eya2 blk	CtBP-E1A inh	D2 agonist	TRPML1 inh
O=C(C[C@H]1C(=O)N(C2CCCCC2)C[C@@H]1Cc1ccccc1)Nc1ccccc1	0.2&0.1	2.1%	-2	3	-0.5	-14
CC(=O)NCCC(=O)Nc1nc(-c2ccc3c(c2)OCCO3)cs1	-0.6	0.2%	-10	0	-0.8	3
CCc1ccc(NC(=S)NC2CCN(Cc3ccccc3)CC2)cc1	-0.3	9.7%	-15	-15	-3.0	3
COC(=O)c1cnn(-c2ccccc2)c1N	-0.2	0.5%	0	12	-0.4	-7
CCOC(=O)Cn1c(C)cc(COC)c(C#N)c1=O	0.7	-1.4%	12	/	0.4	-17
Nc1c(Cl)cc(-c2csc(N3CCCC3c3nc4cc(Cl)c(N5CCCCC5)cc4n3CCOCCO)n2)cc1Cl (configuration not stated)	-0.6	1.8%	-16	-10	-3.9	-19
COc1ccc(Oc2nccc(-c3ccc(F)cc3)c2C#N)cc1	0.0	2.0%	14	10	3.5	27
O=c1c2ccsc2ncn1Cc1ccccc1F	4.5	0.0%	4	-4	-3.2	-3
COc1ccc(C(=O)COC(=O)c2ccccn2)cc1OC	-0.2	0.4%	-16	?	2.7	-6
COc1ccc(OC)c(-c2csc(NC(=O)Cc3ccc(OC)c(OC)c3)n2)c1	2.8	0.4%	-18	-18	-0.9	4
CCN(CC)C(=O)C(=O)c1cccn1-c1c(Cl)cccc1C#N	0.8	-0.7%	11	/	-6.7	58
CCOC(=O)c1oc2c(c1C)-c1nn(Cc3ccc(Cl)cc3)cc1CC2	2.8	0.2%	/	/	/	7
N[C@@H](Cc1ccc(O)cc1)c1nnc([C@H](CO)NC(=O)C2CCNCC2)o1	-0.9	1.6%	-23	-30	-2.7	7
CC1CCCC(C(=O)O)N1C(=O)CCSC(=O)c1ccccc1 (configuration not stated)	-0.6	0.0%[38.3 µM]	2	3	0.1	13
CCc1ccc(C2C(C(=O)Nc3ccccc3OC)=C(C)Nc3c(C(=O)Nc4ccc(C)cc4)cnn32)cc1 (configuration not stated)	1.4	24%	/	/	/	21
Cc1cc(SCC(=O)O)nc2ccccc12	0.8&-0.4	-0.9%&1.3%	3&1	6&-1	-3.0&-0.1	-12&-13

Rows are unselected; about 1% have a hit in one of these screens.
